TRPML1 blocker = human mucolipin-1 channel inhibition; activity change, negative = inhibition, % (test concentration not listed); actives 0.02% (n = 390,000); TRPML1-inducible cells, Ca2+ dye fluorescence, FDSS; stronger effect = lower value; inhibition of EC80 agonist-evoked calcium signal; AID 624415; in the data active means activity change below about -50%; inconclusive means about -30% to -50%; inactive means above about -30%;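 further: stimulus is agonist 54-4 at its EC80 concentration; on the % scale 0 is the no-effect control and ±100 the full control effect; compound concentration not given in the record; the text of the record puts the active cut at -80%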
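TRPML1-DL cells, Tet-induced overnight (~16 h, 37 °C) at 1,500 cells/well, were loaded with Ca8 no-wash dye plus quencher for 45-90 min at room temperature. Compounds were pinned during FDSS kinetic reading; agonist 54-4 at EC80 (4 uM final) then added.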
D2 PAM = potentiates the human D2 dopamine receptor allosterically; P14416; DiscoveRx D2 beta-arrestin cells, luminescence, 90 min; 100% = 57 uM dopamine signal; potentiation, % (test concentration not listed); actives 0.23% (n = 360,000); AID 624464; active = potentiation of 50% or more; inconclusive = 30% to 50%; inactive = 30% or less;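 further: compound concentration not given in the record; tested on top of an EC20 dose of dopamine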
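PathHunter beta-arrestin assay in DiscoveRx D2 cells. Compounds were added with an EC20 of dopamine (50 nM final) for 90 min at 37 deg C. Luminescence was read 1 h after detection reagent, with 57 uM dopamine as the EC100 control.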
TRPV1 PAM = potentiators of human vanilloid receptor 1 (TRPV1) | Q8NER1 | TRPV1-expressing cells, Fluo-8 calcium influx, capsaicin EC20 potentiation; host cell line not named in the record; control for the full effect not named in the record | potentiation, % at 8.33 µM | actives 0.02% (n = 320,000); active means potentiation above 80%; inconclusive means 30% to 80%; inactive means below 30%; further: 0% is about no effect
Target sequence (Q8NER1 whole entry, looked up): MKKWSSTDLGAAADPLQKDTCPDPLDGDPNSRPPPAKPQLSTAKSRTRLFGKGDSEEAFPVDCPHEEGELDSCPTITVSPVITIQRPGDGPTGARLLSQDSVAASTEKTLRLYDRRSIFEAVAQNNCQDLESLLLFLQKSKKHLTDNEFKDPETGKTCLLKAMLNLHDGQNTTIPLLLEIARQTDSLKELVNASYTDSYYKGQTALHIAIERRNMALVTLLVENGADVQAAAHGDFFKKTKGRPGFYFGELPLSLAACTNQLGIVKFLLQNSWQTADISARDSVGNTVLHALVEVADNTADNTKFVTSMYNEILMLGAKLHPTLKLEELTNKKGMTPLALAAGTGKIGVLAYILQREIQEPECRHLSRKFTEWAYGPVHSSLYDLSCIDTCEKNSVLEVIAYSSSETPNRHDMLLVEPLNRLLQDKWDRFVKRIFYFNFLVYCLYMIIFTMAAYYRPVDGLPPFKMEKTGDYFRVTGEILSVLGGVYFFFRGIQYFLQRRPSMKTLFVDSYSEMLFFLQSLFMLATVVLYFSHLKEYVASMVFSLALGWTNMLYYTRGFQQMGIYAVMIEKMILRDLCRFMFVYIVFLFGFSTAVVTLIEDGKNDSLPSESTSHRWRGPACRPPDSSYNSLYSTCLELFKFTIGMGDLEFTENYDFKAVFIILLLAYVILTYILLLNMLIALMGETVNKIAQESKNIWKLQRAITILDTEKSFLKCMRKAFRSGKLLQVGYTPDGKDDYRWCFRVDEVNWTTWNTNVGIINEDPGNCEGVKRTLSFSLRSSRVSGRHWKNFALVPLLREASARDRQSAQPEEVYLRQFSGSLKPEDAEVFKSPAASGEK
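TRPV1-expressing cells were cultured overnight at 35.5C and loaded with Fluo-8 calcium dye for 40 to 90 min at room temperature. After a 10 s baseline, compound was added and calcium influx was read kinetically for 3 min (ex 480/em 520 nm).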
CtBP-E1A inh = blocks the CtBP interaction with E1A; AlphaScreen GST-E1A/His-CtBP binding, 1536-well; stronger effect = lower value; control for the full effect not named in the record; activity change, % (test concentration not listed); actives 0.49% (n = 340,000); in the data active means activity change below about -65%; inconclusive means about -30% to -65%; inactive means above about -30%; further: on the % scale 0 is the no-effect control and ±100 the full control effect; compound concentration not given in the record
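Protein mix (5X: 125 nM each GST-E1A, His-CtBP) was incubated with pinned compound 2 h at 37 deg C in dark, in 50 mM Tris pH 8.0 buffer with 300 mM NaCl. Glutathione donor and nickel acceptor beads followed; AlphaScreen signal read after 1 h.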
Six1-Eya2 blk = inhibitors of human Six1/Eya2 interaction. actives 0.56% (n = 360,000). AID 651725. Q15475+O00167. activity change, % (concentration not given with the values). AlphaScreen GST-Six1/His-Eya2 binding, biochemical; stronger effect = lower value; control for the full effect not named in the record; in the data active = activity change below about -65%; inconclusive = about -30% to -65%; inactive = above about -30%; further: on the % scale 0 is the no-effect control and ±100 the full control effect
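Homogeneous AlphaScreen proximity assay pairing GST-Six1 with His-tagged Eya2 (added as 5X mix: 250 nM and 500 nM) in 50 mM Tris pH 8.0, 300 mM NaCl, 1 mM TCEP. Glutathione donor and nickel acceptor beads; 1 h, 37 °C, dark.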
TRPML1 agonist = activates the human TRPML1 channel. actives 0.12% (n = 410,000). activation, % (no concentration beside the values). TRPML1-expressing cells, Ca2+ dye fluorescence, FDSS; host cell line not named in the record; reference of the full effect not given here. Q9GZU1; in the data active = activation above about 50%; inconclusive = about 30% to 50%; inactive = below about 30%; further: 0% is about no effect; the text of the record puts the active cut at 80%
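Agonist activity was taken from a 110 s kinetic Ca2+ dye read on the FDSS after pinning compounds onto TRPML1-DL cells. The cells were seeded at 1,500/well with Tet inducer, incubated about 16 h, then dye-loaded at room temperature.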
An asterisk follows results filed as active; ? = inconclusive; . = not tested or not shown.

SMILES	TRPML1 blocker	D2 PAM	TRPV1 PAM	CtBP-E1A inh	Six1-Eya2 blk	TRPML1 agonist
C=CCNC(=S)NNC(=O)c1ccc(OCCC)cc1	7	-8	3	0	-4	-0.6
CCCN(C(=O)Cc1csc(-c2ccccc2)n1)C1CCS(=O)(=O)C1 (stereo not given)	12	7	1	0	7	0.3
CC(=O)SCC[N+](C)(C)C	7	3	-8	2	-6	0.2
COc1ccc(NC(=O)c2cc(-c3ccc(C)cc3)on2)cc1OC	1	0	2	-2	9	1.2
CC(=O)Nc1c2c3c(cccc3n(C)c1=O)C(=O)c1ccccc1-2	-2	-14	0	-3	-13	-0.3
CCCCOc1ccc(C(=O)NCC(=O)N2CCN(C/C=C/c3ccccc3)CC2)cc1	2	-18	.	-5	-3	-0.8
COc1ccc(NC(=O)CN2CCc3ccccc3C2)c(OC)c1	-6	-9	16	-4	-4	1.1
COC(=O)NCC(c1ccc2c(c1)OCO2)N1CCN(c2ccc(OC)cc2)CC1 (stereo not given)	24	-10	-3	.	-13	2.6
CNc1ccccc1C(=O)OC(C)C(=O)Nc1ccc(Cl)cn1 (stereo not given)	-6	-3	4	49	69	3.1
C=CCNC(=O)N[C@@H](Cc1ccccc1)C(=O)OC	25	-9	-8	-1	0	-0.4
CN(C(=O)Cn1c(=O)oc2ccccc21)C1CCCCC1	2	-10	-6	7	1	1.6
Nc1nnc(-c2ccc(Cl)c(Cl)c2)s1	34	-14	-3	.	-1	0.7
COc1ccccc1-n1c(C)nc2cc(C(=O)O)ccc21	17	-11	6	1	1	0.9
CCOC(=O)c1ccc(-n2ccnc2)c(NC(=O)c2ccc(Cl)cc2)c1	-24	7	-1	5	-1	0.4
Cc1cc(NC(=O)CSC2=NS(=O)(=O)c3ccccc3N2)no1	-11	-30	7	1	8	-0.3
Cn1c(=O)n(CC(=O)NCc2cccnc2)c2ccccc21	6	-3	24	8	3	-0.3
COc1cccc(Oc2c(C)oc3c(CN4CCOCC4)c(O)ccc3c2=O)c1	-3	-5	.	-18	4	-0.6
CCOc1ccc(C)cc1S(=O)(=O)n1ccnc1	3	10	-12	3	-8	-0.4
COc1ccc(CCNc2ncnc3[nH]ncc23)cc1OC	11	0	2	-1	-12	0.0
CCc1ccc2[nH]c(=O)c(CN(Cc3ccco3)S(=O)(=O)c3ccc4c(c3)OCCO4)cc2c1	-2	-3	-7	6	5	0.2
O=C(CSc1c2c(nc3ccccc13)CCC2)N1CCCC1	1	-9	5	0	-6	-0.2
O=C(NC1CCCCC1)N1CCSC1=Nc1ccccc1	6	-13	-6	7	-2	-0.1
NCCCn1c(C(=O)c2ccc(Cl)cc2)c2ccc(C(F)(F)F)cc2[n+]1[O-]	-12	-2	3	-6	-2	1.0
CCOc1ccc(C2C(C(=O)OC)=C(C)N=C3SCCC(=O)N32)cc1OCC (stereo not given)	2	-6	3	-3	-1	0.6
CN(CCNC(=O)C1CCC(=O)N(Cc2ccc(Cl)cc2)C1)CCc1ccccc1 (stereo not given)	-8	-9	10	0	11	2.4
Cc1cc(C)c(O)c(-c2n[nH]c3c2C(c2cccc(O)c2)N(Cc2ccco2)C3=O)c1 (stereo not given)	.	-3	.	-14	-9	.
CC(=O)c1c(C)[nH]c(C(=O)OCC(=O)Nc2nnc(-c3ccccc3)o2)c1C	1	2	14	?	?	0.3
O=C(NNS(=O)(=O)c1ccccc1)C1CCN(S(=O)(=O)c2ccccc2)CC1	0	4	?	4	0	-0.3
O=C(O)C1C(c2ccccc2)C(C(=O)Oc2ccc(O)cc2)C1c1ccccc1 (stereo not given)	-12	-6	-8	-5	2	-0.6
Cc1[nH]n2c(=O)c3c(nc2c1-c1ccccc1)CCCC3	-6	-39	1	-8	-13	0.1
CC(C)CCCC(C)NS(=O)(=O)Cc1ccccc1 (stereo not given)	50	-10	4	10	15	1.4
Cc1cccc(C)c1NC1=NC2(CCCCC2)N=C(N)N1	-6	-8	-24	-7	3	-0.1
CCC(NC(=O)c1ccccc1NC(=O)c1ccco1)C(=O)NNC(=O)c1ccncc1 (stereo not given)	-6	10	-1	.	-2	0.4
CCOCCCN1CN(Cc2ccccc2)CNC1=S	-17	-4	1	-1	12	0.5
CC(C)CN(C(=O)C1CCC1)c1c(N)n(Cc2ccccc2)c(=O)[nH]c1=O	-2	-4	.	0	-3	0.0
Cc1cccc(-c2cc(C(=O)N3CCCc4ccccc43)c3ccccc3n2)c1	1	-2	-1	0	-14	1.0
Nc1c(-c2ccccc2)cnn1-c1cccc(Cl)c1	-6	-2	-2	0	0	-0.7
COc1ccc(S(=O)(=O)N(C)C[C@H]2Oc3ccc(NC(=O)Cc4ccccc4)cc3C(=O)N([C@H](C)CO)C[C@@H]2C)cc1	9	2	.	5	-7	-0.1
COc1ccc(S(=O)(=O)NCC(=O)Nc2ccc(F)cc2)cc1	-3	-3	5	.	6	-0.6
CC(=O)Nc1nc2c(s1)CCc1ccccc1-2	20	-7	-4	.	-6	2.0
CCOC(=O)c1c(C)n(C(=O)c2ccco2)c(=O)n1C(=O)c1ccco1	14	-3	3	7	3	-0.8
Cc1cc(C)cc(NC(=O)N2CCC(c3nc4ccccc4o3)CC2)c1	-11	-4	-7	-3	0	1.1
CCN(c1cccc(C)c1)S(=O)(=O)c1ccc(OC)c([N+](=O)[O-])c1	-9	-6	-4	-1	-1	1.1
O=C(N=Nc1c(O)[nH]c2ccc(Cl)cc12)c1cc(-c2cccs2)nc2ccccc12	16	-17	14	2	-3	0.0
CC1CN(c2nc3ccccn3c(=O)c2/C=C(\C#N)S(=O)(=O)c2ccccc2)CC(C)O1 (stereo not given)	3	0	-13	-3	-1	-0.4

At a glance, part of the list above.
SMILES	TRPML1 blocker	D2 PAM	TRPV1 PAM	CtBP-E1A inh	Six1-Eya2 blk	TRPML1 agonist
O=C(N=Nc1c(O)[nH]c2ccc(Cl)cc12)c1cc(-c2cccs2)nc2ccccc12	16	-17	14	2	-3	0.0
CC1CN(c2nc3ccccn3c(=O)c2/C=C(\C#N)S(=O)(=O)c2ccccc2)CC(C)O1 (stereo not given)	3	0	-13	-3	-1	-0.4

Carrying on.
SMILES	TRPML1 blocker	D2 PAM	TRPV1 PAM	CtBP-E1A inh	Six1-Eya2 blk	TRPML1 agonist
O=C(/C=C/c1ccco1)OCC1CCCN2CCCCC12 (stereo not given)	-10	-6	2	23	7	-0.2
O=S(=O)(c1ccc(Cl)cc1)N1CCN(C2CCN(Cc3ccccc3)CC2)CC1	-10	-37	-5	-4	0	0.9
C=Cc1ccc(CN2CCCN(Cc3ccc(Cl)cc3)S2(=O)=O)cc1	60	-7	-3	.	22	2.3
CC1=C(c2ccc(F)cc2)[N+](=O)C(C)(C)N1[O-]	31	-4	16	.	-7	2.2
CCCn1c(/N=C/c2ccc3c(c2)OCO3)nc2ccccc21	0	-17	2	0	2	0.2
Cc1ccc(S(=O)(=O)N(C)c2ccc(C(=O)NC3CCCCC3)cc2)cc1	45	-13	.	-6	1	-0.8
CCCCNC(=S)Nc1ccc(OC)nc1	-24	-9	-7	-12	-12	1.0
N#CCCN(C(=O)c1ccc2c(=O)n3c(nc2c1)CCCCC3)c1ccccc1	5	-5	3	1	1	-0.3
Cn1c(-c2sc3cc(C(F)(F)F)cnc3c2-c2cccs2)n[nH]c1=S	-16	-6	6	-2	-5	1.1
CCCN1C(=O)C(O)(C2CC(=O)CC(C)(C)O2)c2ccccc21 (stereo not given)	-5	-9	-2	1	8	-0.8
N#C/C(=C(/O)c1cccc(F)c1)c1nc2ccccc2s1	14	-12	4	.	-2	0.2
Cc1cc(SCC(=O)NC2CC2)nc2ccccc12	-2	7	.	13	6	0.4
COc1ccccc1CN1CCNC(=O)C1CC(=O)NCCC1=CCCCC1 (stereo not given)	-20	-10	-1	1	0	-0.6
O=C(Nc1nccs1)C1CC2CCC1C2 (stereo not given)	0	-19	?	2	0	-0.8
CCCS(=O)(=O)NC(=O)C1(C)CCCN(C(=O)c2cccc(OC(F)(F)F)c2)C1 (stereo not given)	.	-1	.	8	6	-0.2
COc1cc(C(=O)Nc2ccc(N3CCN(C(=O)c4ccc(C)cc4)CC3)cc2)cc(OC)c1OC	-2	-1	11	-12	-10	0.2
COc1ccc(C(=O)CCC(=O)Nc2ccc(N3CCN(C)CC3)cc2)cc1OC	-1	-10	-3	.	19	0.3
COc1ccc(CNC(=O)C2CCCN(c3ncnc4c3nc3n4CCCCC3)C2)cc1 (stereo not given)	-4	-1	-24	1	1	-1.1
CSc1ccc(/C=C(\C#N)C(=O)NC2CCCCC2C)cc1 (stereo not given)	14	-27	-7	-11	3	-0.2
O=C(NC(=S)NCCc1ccccc1)c1cccc(Cl)c1	2	-4	-7	-12	8	3.0
O=C1OC[C@H]2CCCN2C(=O)[C@@H](CC(=O)N(CCO)Cc2ccccc2)C/C=C\C[C@@H]1Cc1ccc(F)cc1	18	-7	.	5	-1	-0.5
CC(C)CCN1CCN(Cc2cccc(C(F)(F)F)c2)CC1CCO (stereo not given)	-16	-17	2	.	-4	2.5
O=C(C[n+]1ccccc1)Nc1ccc(Cl)c([N+](=O)[O-])c1	3	-7	2	.	-2	-0.7
CCN1CCN(c2ncc(C(=O)Nc3c(F)cc(F)cc3Br)c3ccccc23)CC1	3	-34	27	1	-2	0.6
CCOC(=O)C1CCN(C(=O)COC(=O)c2oc3ccccc3c2C)CC1	60	5	-9	2	10	-0.5

Structural class, the entries above containing an aryl methoxy group
SMILES	TRPML1 blocker	D2 PAM	TRPV1 PAM	CtBP-E1A inh	Six1-Eya2 blk	TRPML1 agonist
COc1ccc(NC(=O)c2cc(-c3ccc(C)cc3)on2)cc1OC	1	0	2	-2	9	1.2
COc1ccc(NC(=O)CN2CCc3ccccc3C2)c(OC)c1	-6	-9	16	-4	-4	1.1
COC(=O)NCC(c1ccc2c(c1)OCO2)N1CCN(c2ccc(OC)cc2)CC1 (stereo not given)	24	-10	-3	.	-13	2.6
COc1ccccc1-n1c(C)nc2cc(C(=O)O)ccc21	17	-11	6	1	1	0.9
COc1cccc(Oc2c(C)oc3c(CN4CCOCC4)c(O)ccc3c2=O)c1	-3	-5	.	-18	4	-0.6
COc1ccc(CCNc2ncnc3[nH]ncc23)cc1OC	11	0	2	-1	-12	0.0
COc1ccc(S(=O)(=O)N(C)C[C@H]2Oc3ccc(NC(=O)Cc4ccccc4)cc3C(=O)N([C@H](C)CO)C[C@@H]2C)cc1	9	2	.	5	-7	-0.1
COc1ccc(S(=O)(=O)NCC(=O)Nc2ccc(F)cc2)cc1	-3	-3	5	.	6	-0.6
CCN(c1cccc(C)c1)S(=O)(=O)c1ccc(OC)c([N+](=O)[O-])c1	-9	-6	-4	-1	-1	1.1
CCCCNC(=S)Nc1ccc(OC)nc1	-24	-9	-7	-12	-12	1.0
COc1ccccc1CN1CCNC(=O)C1CC(=O)NCCC1=CCCCC1 (stereo not given)	-20	-10	-1	1	0	-0.6
COc1cc(C(=O)Nc2ccc(N3CCN(C(=O)c4ccc(C)cc4)CC3)cc2)cc(OC)c1OC	-2	-1	11	-12	-10	0.2
COc1ccc(C(=O)CCC(=O)Nc2ccc(N3CCN(C)CC3)cc2)cc1OC	-1	-10	-3	.	19	0.3
COc1ccc(CNC(=O)C2CCCN(c3ncnc4c3nc3n4CCCCC3)C2)cc1 (stereo not given)	-4	-1	-24	1	1	-1.1

An unsorted share of the library (roughly 0.95% active in at least one column).
